# Source: PubChem BioAssay (Emory University Molecular Libraries Screening Center)
# Measles inh: inhibitors of measles virus growth in infected cells; hit rate 0.1% among 33,000; z-score (test concentration not listed); AID 745; infected Vero cells, GFP fluorescence, 64 h; hits give low values;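 active means z-score under -3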;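 further: score is relative to mean and SD of the compound wells of a plate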
# Numbers without * were called inactive. Some of the compounds tested (hit frequency here may not be typical).
# Preview (21 entries):
SMILES,Measles inh
Cn1c(SCc2nc3ccccc3c(=O)n2-c2ccccc2)nc2ccccc21,-0.05
CCOC(=O)C1=C(N)OC(C)=C(C(=O)OC(C)(C)C)C12C(=O)N(CC(=O)OC)c1ccccc12 (stereo unspecified),0.52
CC(C)N1CCN(C(=O)Cc2ccccc2)CC1,0.79
CN1CCN(C(=O)COc2ccc3c(c2)C(=O)CC2(CCCCC2)O3)CC1,-0.52
CCOC(=O)C1=C(C)OC(N)=C(C(=O)OCC)C12C(=O)Nc1ccccc12 (stereo unspecified),0.04
CCOC(=O)C1C2NC(=S)N(c3ccccc3C)C1(C)Oc1ccc(Cl)cc12 (stereo unspecified),0.73
COc1ccccc1-n1c(C=Cc2ccccc2[N+](=O)[O-])nc2ccccc2c1=O,-1.1
CC(=O)NC(C[P+](=O)[O-])C(=O)O (stereo unspecified),-1.3
CC1(O)CCOCC1N1CCCCCC1 (stereo unspecified),0.58
O=C(Nc1nc2ccc(Br)cc2s1)c1c(O)c2c(n(Cc3ccccc3)c1=O)CCCC2,-0.23
CC1NCCc2c1[nH]c1ccccc21 (stereo unspecified),0.23
COc1cc2c(cc1OC)C1(CCCC1)CNC2,0.55
CCCCOc1ccc(CC2C(=O)N(C)C(=O)N(C)C2=O)cc1,0.45
Brc1ccc(C2C=C(c3cccnc3)Nc3ncnn32)cc1 (stereo unspecified),-0.06
Clc1ccc(C2N3CCCCN23)cc1 (stereo unspecified),-1.3
CCOC(=O)C(O)(c1ccc(NC(=O)c2ccco2)c(OC)c1)C(F)(F)F (stereo unspecified),0.38
CCN(CC)c1ccc(C=Nc2sc3c(c2C#N)C2CCN3CC2)c(O)c1,3.9
Cc1cc(OCc2cccc(C(F)(F)F)c2)c2c3c(c(=O)oc2c1)CCC3,-0.18
NCCc1c[nH]c2ccc(OCCO)cc12,-0.53
O=C1C2CCCC1C(N1CCCC1)CC2 (stereo unspecified),0.28
Cc1[nH]c2ccc(F)cc2c1CCN,-0.11

# The listing (from the top)
SMILES,Measles inh
Cn1c(SCc2nc3ccccc3c(=O)n2-c2ccccc2)nc2ccccc21,-0.05
CCOC(=O)C1=C(N)OC(C)=C(C(=O)OC(C)(C)C)C12C(=O)N(CC(=O)OC)c1ccccc12 (stereo unspecified),0.52
CC(C)N1CCN(C(=O)Cc2ccccc2)CC1,0.79
CN1CCN(C(=O)COc2ccc3c(c2)C(=O)CC2(CCCCC2)O3)CC1,-0.52
CCOC(=O)C1=C(C)OC(N)=C(C(=O)OCC)C12C(=O)Nc1ccccc12 (stereo unspecified),0.04
CCOC(=O)C1C2NC(=S)N(c3ccccc3C)C1(C)Oc1ccc(Cl)cc12 (stereo unspecified),0.73
COc1ccccc1-n1c(C=Cc2ccccc2[N+](=O)[O-])nc2ccccc2c1=O,-1.1
CC(=O)NC(C[P+](=O)[O-])C(=O)O (stereo unspecified),-1.3
CC1(O)CCOCC1N1CCCCCC1 (stereo unspecified),0.58
O=C(Nc1nc2ccc(Br)cc2s1)c1c(O)c2c(n(Cc3ccccc3)c1=O)CCCC2,-0.23
CC1NCCc2c1[nH]c1ccccc21 (stereo unspecified),0.23
COc1cc2c(cc1OC)C1(CCCC1)CNC2,0.55
CCCCOc1ccc(CC2C(=O)N(C)C(=O)N(C)C2=O)cc1,0.45
Brc1ccc(C2C=C(c3cccnc3)Nc3ncnn32)cc1 (stereo unspecified),-0.06
Clc1ccc(C2N3CCCCN23)cc1 (stereo unspecified),-1.3

# 4 of these compounds in another layout:
canonical_smiles	Measles inh
CC1(O)CCOCC1N1CCCCCC1 (stereo unspecified)	0.58
CCOC(=O)C1=C(N)OC(C)=C(C(=O)OC(C)(C)C)C12C(=O)N(CC(=O)OC)c1ccccc12 (stereo unspecified)	0.52
COc1cc2c(cc1OC)C1(CCCC1)CNC2	0.55
CC(=O)NC(C[P+](=O)[O-])C(=O)O (stereo unspecified)	-1.3

# The list continues:
SMILES,Measles inh
CCOC(=O)C(O)(c1ccc(NC(=O)c2ccco2)c(OC)c1)C(F)(F)F (stereo unspecified),0.38
CCN(CC)c1ccc(C=Nc2sc3c(c2C#N)C2CCN3CC2)c(O)c1,3.9
Cc1cc(OCc2cccc(C(F)(F)F)c2)c2c3c(c(=O)oc2c1)CCC3,-0.18
NCCc1c[nH]c2ccc(OCCO)cc12,-0.53
O=C1C2CCCC1C(N1CCCC1)CC2 (stereo unspecified),0.28
Cc1[nH]c2ccc(F)cc2c1CCN,-0.11
NCCc1c[nH]c2ccc(Cl)cc12,-0.58
O=C(Nc1ccc(Br)cc1C(=O)c1ccccc1)c1ccc(S(=O)(=O)N2CCOCC2)cc1,0.09
CCC(C)NC(=O)CN1C(=O)CN=C(c2ccccc2Cl)c2cc(Cl)ccc21 (stereo unspecified),-1.3
COc1ccc(OC)c(NC(=O)CN2C(=O)CN=C(c3ccccc3Cl)c3cc(Cl)ccc32)c1,0.64
CCC(C(=O)Nc1ccc(C(C)C)cc1)N1C(=O)CN=C(c2ccccc2)c2ccccc21 (stereo unspecified),-0.89
Nc1nonc1NC(=O)COC1CN2CCC1CC2 (stereo unspecified),-0.36
CCc1nc2ccccc2c(=O)n1-c1cccc([N+](=O)[O-])c1,-0.4
CCCC1=C(C(=O)OCC)C2(C(=O)Nc3ccc(Br)cc32)C(C(=O)OCc2ccccc2)=C(N)O1 (stereo unspecified),-0.37
CCc1ccc(CN2CCN(Cc3cc(Br)ccc3O)CC2)cc1,-0.18
Cc1ccc(C)c(CN2C(=O)CN=C(c3ccccc3)c3ccccc32)c1,-0.66
O=C1CN=C(c2ccc(F)cc2)c2oc3ccccc3c2N1,-0.23
Cc1ccc(-n2c(C=Cc3cc(Br)cs3)nc3ccccc3c2=O)cc1,-0.27
C#CC1(C)CCC2C(O1)c1ccccc1OC2(C)C (stereo unspecified),-0.84
C#CCN1CCCC2(CCOC(C)(CC)C2)C1 (stereo unspecified),-0.08
O=C(c1ccccc1)c1cc(Cl)ccc1NC(=O)c1ccc(Cl)cc1[N+](=O)[O-],2.1
O=C(Nc1ccccn1)c1c(O)c2ccccc2n(Cc2ccccc2)c1=O,1.2
COC(=O)C1C(=O)NC2(C)CC1c1cccc(OC)c1O2 (stereo unspecified),0.78
O=C1CN=C(c2ccc(Cl)cc2)c2oc3ccccc3c2N1,-0.34
O=C(CCNS(=O)(=O)c1ccccc1)Nc1ccc(Br)cc1C(=O)c1ccccc1,0.11
O=C(Nc1ccc(Cl)cc1C(=O)c1ccccc1)c1ccc(Br)cc1,0.03
COc1ccc(C2(CN)CCCC2)cc1OC,-0.13
Cc1cc(C)cc(-n2c(C=Cc3ccc(F)cc3)nc3ccccc3c2=O)c1,0.3
Cc1cc(OCC(=O)c2ccc(Br)cc2)c2c3c(c(=O)oc2c1)CCC3,-0.39
CCCC12CN3CCN(CC(C3)C1O)C2 (stereo unspecified),-0.09
O=C(O)c1nc(Cl)ccc1Cl,2
CCC(C)n1[nH]c(=O)c2c1NC(=O)CSC2c1ccc(OCc2ccccc2)cc1 (stereo unspecified),0.09
CCOC(=O)C1C2NC(=S)N(c3ccc(Cl)cc3)C1(C)Oc1ccc(OC)cc12 (stereo unspecified),-0.18
CC1(C)CN=C(Nc2ccc(OC(F)(F)Cl)cc2)S1,-0.78
CCN(CC)S(=O)(=O)c1ccc(Cl)c(C(=O)Oc2cccc3cccnc23)c1,-1.5
O=c1c2ccccc2nc(C=Cc2ccc(F)cc2)n1-c1ccccc1Cl,-0.45
Cn1c(C(=O)O)c(CC(=O)N2CCN(Cc3ccccc3)CC2)c2ccccc21,-0.37
COc1ccc(C(=O)Nc2ccc(Br)cc2C(=O)c2ccccc2Cl)cc1,0.33
Cc1ccc(-n2c(C=Cc3cccs3)nc3ccccc3c2=O)cc1,-1.6
CCC(C)n1[nH]c(=O)c2c1NC(=O)CSC2c1ccc(Br)cc1 (stereo unspecified),1.4
Cc1ccc(F)cc1-n1c(C=Cc2ccc(F)cc2)nc2ccccc2c1=O,0.97
COc1ccc2[nH]c(C)c(CCNCCC3=C(C)CCCC3(C)C)c2c1,-0.6
Nc1nonc1N,-0.83
OC(CNc1ccccc1)Cn1c2ccc(Br)cc2c2cc(Br)ccc21 (stereo unspecified),-1.4
CC(=O)N1N=C(c2cccnc2)OC1(C)C,-0.76
CC12CCC(O)CC1CCC1C2CCC2(C)C(OC(=O)c3ccccc3)CCC12 (stereo unspecified),2.1
Clc1ccc(C(Cl)(Cl)Cl)c(Cl)n1,-2
O=C(Nc1ccc(Br)cc1C(=O)c1ccccc1Cl)c1cccs1,-1.2
O=c1oc2ccccc2c(O)c1C1c2ccccc2Nc2c1c(=O)oc1ccccc21 (stereo unspecified),0.69
CC(C)C12CN3CC(C(C)C)(CN(C1)C3c1cccnc1)C2=O (stereo unspecified),-1.2
CC(C)c1ccc(N2C(=O)CC(=O)NC2=O)cc1,-0.34
O=C1NC(=S)NC(=O)C1c1ccccc1,-0.02
O=c1c2ccccc2nc(-c2ccccc2F)n1-c1ccccc1,-0.09
N#Cc1c(N=Cc2cc(Br)ccc2O)sc2c1C1CCN2CC1,-1.1
C=CC1CN2CCC1CC2C(OC(=O)c1ccc(OC)cc1)c1ccnc2ccccc12 (stereo unspecified),-0.49
O=c1c2ccccc2nc(-c2ccccc2)n1-c1ccc(O)cc1,-1.1
CCc1ccc(CNCCc2ccc3c(c2)OCO3)cc1,0.11
O=C1CC(=O)N(c2cccc(F)c2)C(=O)N1,0.9
CCOP(=S)(OCC)SCC(=O)c1c(O)cc(C)oc1=O,1.2
Cc1cccc(N2C(=O)CC(=O)NC2=S)c1,-0.54

# Continued.
SMILES,Measles inh
CCN(CC)CCSc1nc2ccccc2c(=O)n1-c1ccc(OC)cc1,0.86
CC(=O)N1CCC2(CC1)CC(=O)c1cc(OCC(=O)N3CCN(C)CC3)ccc1O2,0.46
CCOc1ccc(C2NC(=S)NC(c3ccc(OCC)c(OC)c3)C23C(=O)NC(=O)NC3=O)cc1OC (stereo unspecified),0.18
c1cncc(C2N3CCCN2CC3)c1 (stereo unspecified),1.4
Cc1c(Cl)cccc1-n1c(C=Cc2ccc(F)cc2)nc2ccccc2c1=O,-0.83
CCOC(=O)c1c(CN2CCCCC2)n(Cc2ccccc2)c2cc(Br)c(O)cc12,-1.7
CCC(=O)N1N=C2C3CCN(CC3)C2C1c1ccc([N+](=O)[O-])cc1 (stereo unspecified),-0.92
CCC(C)N1CCN(Cc2c[nH]c3ccccc23)CC1 (stereo unspecified),-0.16
Cc1nc2ccc(I)cc2c(=O)n1-c1cccc(C(F)(F)F)c1,-0.59
Cc1ccc(N)c(C(=O)c2cccc(Cl)c2)c1,-1.8
Cc1ccc(-n2c(C(F)(F)F)nc3ccccc3c2=O)cc1,-0.28
Cc1ccc2c(c1)C1CN(C)CCC1N2C(=O)c1ccc(Br)o1 (stereo unspecified),-0.13
c1ccc(CCCN2CCN(C3CCCCC3)CC2)cc1,1.8
O=c1c(Cl)c(Cl)[nH]c(Cl)c1Cl,0.38
